Source: PubChem
T cell modulator: modulators of CD8 T cell-vesicle binding, primary screen, mouse 2C CD8+ T cells, flow cytometry. 2C CD8+ T cell-vesicle binding; active compounds read low. AID 2052, 2009. calls only at 7 µM. 330,000 compounds, 0.068% hits;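 active = response, share of CD8 T cells binding vesicles, and their 90th percentile fluorescence all below set limits, cut at about 80% in these data, passing the limit was not always enough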
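incubation = binding step 1.5 h, 37 °C, antibody labelling 20 min, ice | test system = 2C mouse CD8+ T cells | read-out basis = percent CD8+ FL2 mean versus row control | controls = Peptide-free naked vesicles (low) and QL9 vesicles with 0.7% DMSO vehicle (high) | detection = flow cytometry of vesicle-bound cells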
P. falciparum M1AAP: P. falciparum M1AAP inhibitors, biochemical, fluorogenic H-Leu-NHMec substrate, 1536-well (AID 1445) | Aminopeptidase N (Plasmodium falciparum (isolate 3D7)) | recombinant M1AAP, H-Leu-NHMec fluorogenic kinetic assay; higher % means a stronger effect | one-dose inhibition, % at 30 µM; IC50 in µM for titrated hits | 220,000 compounds, 0.42% hits;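 active = primary inhibition above the hit cutoff, then over 50% inhibition at one or more dose response concentrations, cut at about 23% in these data, passing the limit was not always enough; inconclusive = conflicting primary data, or primary hits not chosen for dose response; inactive = low primary inhibition, or under 50% at every dose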;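 also: plate controls were DMSO full reaction for no effect and no enzyme background for full effect; strong numbers were not always called active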
M17LAP inhibition: P. falciparum M17LAP inhibitors, primary screen, biochemical, fluorogenic H-Leu-NHMec substrate, 1536-well (AID 1619); Leucine aminopeptidase (Plasmodium falciparum (isolate 3D7)); recombinant M17LAP, H-Leu-NHMec fluorogenic kinetic assay; higher % means a stronger effect; inhibition, % at 30 µM, or IC50 in µM where a hit was titrated; 220,000 compounds, 0.38% hits;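 active = compound inhibiting the enzyme by more than half at any dose during confirmatory dose-response retesting; inconclusive = strong single-dose inhibitors picked by rank but not retested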;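 also: plate controls were full reaction with DMSO carrier for no effect and no enzyme background for full effect; strong numbers were not always called active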
Dynein transport: inhibitors of GR-EGFP nuclear translocation, primary screen, dynein cargo transport inhibitor project, imaging, high-content, 3617.4 mouse cells; 220,000 compounds, 0.47% hits; test concentration mostly 20 µM; stimulated with dexamethasone, 1 µM; active compounds read low; z-score, hits read low;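 active = plate z-score of nuclear minus cytoplasmic receptor signal below a set negative limit, without overly bright fluorescence or cell loss, cut at about -3.5 in these data, passing the limit was not always enough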;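 also: z-score of nuclear minus cytoplasmic ring GR-EGFP intensity difference per well; some compounds called inactive have numbers as strong as hits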
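Buffer or medium: tetracycline-free induction medium containing charcoal-stripped FBS / Reagent: dexamethasone agonist, 1.0 µM final, for 30 min / Technique: automated 10x imaging of fixed Hoechst-stained cells / Times: induction 48 h, compound 1 h, agonist 30 min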
Autophagy mod: autophagy modulators in MEF cells, primary screen, imaging, high-content, MEF GFP-LC3. AID 463193, 2010. calls only at 10 µM (by protocol). 190,000 compounds, 0.98% hits. MEF GFP-LC3 puncta imaging; test concentration mostly 10 µM;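 active = percentage of spot-positive cells more than 3 SD above its plate mean, without a fluorescence outlier flag or 80% toxicity; inconclusive = no clear call, values can overlap the other calls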;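 also: spot-positive cell cutoff set from DMSO-treated cells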
MT stabilizer: microtubule stabilizers in HeLa cells, primary screen, imaging, high-content imaging | HeLa tubulin immunostaining HCS, 24 h; share of cells brighter than vehicle mean+2SD | % tubulin-high responders, % at 10 µM | 200,000 compounds, 0.83% hits;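 active = plate Z-score above 3 for both tubulin-high and condensed-nucleus cell shares, with cell loss under 80%, at 10 µM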;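 also: anti alpha tubulin signal scored within the nucleus-defined area of each cell; some results filed as inactive read as strong as hits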
WT yeast gro inh: growth inhibition of WT strain, primary screen, mitochondrial fusion inhibitor project, WT and mutant strains, chemical genetic; 190,000 compounds, 2.1% hits; inhibition, % at 10 µM; mitochondrial fusion phenotypic screen; in the data active = inhibition above about 58%; tested in S. cerevisiae
Yfh1-off respiration: enhancers of respiration in Yfh1-depleted yeast, dose response, Friedreich's ataxia, plus single-dose screen (AID 1465) | S. cerevisiae Yfh1-off respiration, WST-1 reduction, 72 h; higher fold induction means a stronger effect | one-dose fold induction at 50 µM; EC50 in µM for titrated hits | 220,000 compounds, 0.074% hits;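 active = fold induction of absorbance versus untreated yeast above a set limit, then at least 30% activation at any dose in follow-up; inconclusive = repeats straddling the limit, or above it without dose testing; inactive = fold induction below the set limit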;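 also: activators that raise dye reduction in frataxin-depleted yeast; strong numbers were not always called active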
WT yeast gro inh mutant strain: second read-out of WT yeast gro inh, no call of its own (marks repeat the call); inhibition, %; mitochondrial fusion phenotypic screen, mutant strain inhibition
Dynein transport cytoplasmic EGFP: recorded beside Dynein transport, whose call it bears; z-score; measured here: cytoplasmic GR-EGFP intensity; active compounds read high
Dynein transport nuclear GR-EGFP: further read-out of Dynein transport, marked with its call; z-score; measured here: nuclear GR-EGFP intensity;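 lower value marks the stronger effect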
Dynein transport cell count: also measured in Dynein transport; calls as there; z-score; measured here: cell count per field
T cell modulator vesicle-bound %: also measured in T cell modulator; calls as there; double positive events, %; measured here: CD8+ vesicle-bound cell fraction;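 binding gate set so that unloaded-vesicle control wells show 10% double positive cells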
MT stabilizer Hoechst-high %: second read-out of MT stabilizer, no call of its own (marks repeat the call); % Hoechst-high responders; measured here: nuclear condensation Hoechst responders;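 share of cells brighter than vehicle mean plus two SD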
MT stabilizer cytotoxicity %: second read-out of MT stabilizer, no call of its own (marks repeat the call); toxicity, %; measured here: cytotoxicity by cell density;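 0% = mean cell density of plate MIN control wells and 100% = no cells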
Autophagy mod cell loss 18 h: further read-out of Autophagy mod, marked with its call; toxicity, %; measured here: cell loss, nuclei count;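 cell loss after 18 h compound exposure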
* hit, by the source's call; i = inactive; ? = inconclusive; . = no result given.

SMILES | T cell modulator | T cell modulator vesicle-bound % | P. falciparum M1AAP | M17LAP inhibition | Dynein transport | Dynein transport cytoplasmic EGFP | Dynein transport nuclear GR-EGFP | Dynein transport cell count | Autophagy mod | Autophagy mod cell loss 18 h | MT stabilizer | MT stabilizer Hoechst-high % | MT stabilizer cytotoxicity % | WT yeast gro inh | WT yeast gro inh mutant strain | Yfh1-off respiration
Cc1ccc2occ(/C=C/C(=O)c3ccccc3O)c(=O)c2c1 | i | 46 | -1% | 5% | 0.26 | -0.18 | -0.082 | -0.037 | i | -2 | 3.7 | 2.0 | 3.1 | -4 | -9 | i
N#Cc1ccccc1CN1C(=O)S/C(=C/c2cccn2-c2cccc(C(=O)O)c2)C1=O | i | 40 | 19% | 22% | -0.12 | -0.22 | 0.057 | 0.85 | i | -7 | 2.6 | 1.8 | 14 | -18 | -3 | i
COC(=O)c1[nH]c2cc(C)ccc2c1NC(=O)CN1CCCc2ccccc21 | i | 22 | 4% | 24% | -1.8 | 0.087 | -0.91 | 1.3 | i | -19 | 3.3 | 2.4 | 8.6 | -2 | -5 | i
Cc1sc2nc(SCc3ccccc3)n(Cc3ccco3)c(=O)c2c1C | i | 21 | 0% | -2% | 0.016 | -0.18 | 0.16 | -0.19 | i | 5 | 3.0 | 2.2 | 8.4 | -1 | 5 | i
Cc1ccc(C(=O)OCn2ncc(Cl)c(Cl)c2=O)cc1 | i | 55 | -3% | -5% | -3.8* | 2* | -1.9* | -0.81* | ? | . | 3.2 | 1.9 | 5.5 | 7 | 1 | i
O=S1(=O)CCN2C=Nc3sc4c(c3C2=N1)CCCC4 | i | 52 | 4% | 21% | -0.84 | -0.21 | -0.37 | 0.73 | i | 0 | 1.7 | 2.0 | 9.1 | -8 | -2 | i
CCCn1c(Sc2nc3c(c(=O)[nH]c(=O)n3C)n2CCC)nc2c1c(=O)[nH]c(=O)n2C | i | 42 | -4% | 12% | 3.6 | -0.059 | 1.4 | -2.5 | i | -5 | 1.6 | 0.9 | 0.3 | 4 | 1 | i
Cc1cc(=O)[nH]c(SCC(=O)Nc2ccc(S(=O)(=O)N3CCOCC3)cc2)n1 | i | 46 | 6% | 13% | 0.68 | -0.21 | -0.22 | -0.6 | i | -1 | 3.5 | 1.0 | 2.9 | -7 | -34 | i
CC(C)=CCc1c(C)nc2ccccc2c1C(=O)O | i | 11 | -6% | 1% | 0.88 | -0.26 | 0.56 | -0.16 | i | 16 | 9.5 | 1.6 | 13 | -7 | -21 | i
O=C(O)/C=C/C(=O)Nc1ccccc1-c1ccccc1 | i | 45 | -3% | -13% | -0.17 | -0.19 | -0.16 | 0.004 | i | 3 | 1.6 | 1.7 | 8.2 | -11 | -17 | i
COc1ccc(NC(=O)C2(c3ccc(NC(=O)c4ccc(C)cc4)cc3)CCCC2)cc1 | i | 10 | 0% | 9% | 0.0061 | -0.19 | -0.074 | 0.1 | i | 27 | 1.3 | 1.5 | 6.3 | 54 | 42 | i
CN(C)c1ccc(/C=c2\sc3nc(-c4ccccc4)nn3c2=O)cc1 | . | . | 4% | 6% | -1.2 | 4.6 | -0.0047 | 0.2 | i | -47 | 2.8 | 2.0 | 8.3 | 5 | -17 | .
COc1ccc(Cc2nc3ccc(S(=O)(=O)N4CCOCC4)cc3[nH]2)cc1OC | i | 11 | 1% | 4% | -0.48 | -0.22 | -0.91 | 0.41 | i | 3 | 2.6 | 2.1 | 1.2 | -4 | 22 | i
CSc1nnc(-c2ccc(Cl)cc2Cl)o1 | i | 18 | -10% | -14% | 0.065 | -0.15 | -0.6 | -0.96 | i | 2 | 2.5 | 1.0 | 1.0 | 44 | 7 | i
COc1cccc(N(CC(=O)Nc2cccc(C(C)=O)c2)S(C)(=O)=O)c1 | i | 79 | -5% | 0% | 0.098 | -0.2 | 0.025 | -0.31 | i | -4 | 2.4 | 2.3 | 11 | 2 | -2 | i
CCc1ccc(C(=O)c2oc3nc(C)cc(C)c3c2N)cc1 | i | 33 | 1% | 13% | -0.5 | -0.27 | -0.068 | 0.32 | i | -1 | 2.5 | 1.8 | 7.0 | -2 | -4 | i
COc1ccc(NC(=O)COC(=O)CCCc2c[nH]c3ccccc23)cc1OC | i | 9 | -3% | 1% | -0.46 | -0.23 | -0.98 | 0.34 | i | -6 | 2.6 | 1.5 | 6.4 | 2 | -4 | i
CCCCNC(=O)CC(=O)Nc1ccccc1C(=O)O | i | 16 | 0% | -2% | -0.12 | -0.065 | -0.054 | -0.25 | i | 11 | 2.0 | 2.1 | 8.2 | -5 | 5 | i
CN1[C@@H]2CC[C@H]1CC(OC(=O)C(CO)c1ccccc1)C2 (some centres undefined) | . | . | 2% | 12% | 0.63 | -0.27 | 0.52 | 0.57 | i | 19 | 2.0 | 2.0 | 14 | -8 | -5 | i
CCC(C)NC(=O)C1CC(c2ccc(OC)cc2)=NO1 (centres undefined) | i | 30 | -2% | 1% | -0.013 | -0.36 | -0.097 | 0.26 | i | -17 | 4.3 | 3.6 | 3.8 | 8 | 6 | i
O=C(/C=C/c1ccccc1)N/C(=C\c1ccco1)C(=O)NCCO | i | 8 | 7% | 24% | 0.49 | -0.18 | 0.79 | 0.49 | i | 21 | 3.5 | 1.3 | 3.9 | -10 | -5 | i
CCC(C)(C)NC(=O)CC(c1ccc(OC)cc1)n1cccc1 (centres undefined) | i | 8 | 13% | 8% | -0.58 | -0.24 | 0.033 | 0.099 | i | 9 | 2.6 | 3.1 | 13 | -11 | -21 | i
CC(=O)C1=C(C)OC(N)=C(C#N)C1c1cc2cccc(C)c2nc1Cl (centres undefined) | i | 27 | 8% | 19% | -0.64 | -0.023 | 0.39 | 0.69 | i | -20 | 1.7 | 1.7 | 7.3 | -28 | -21 | i
Oc1[nH]c2ccccc2c1N=Nc1ccc(C(F)(F)F)cn1 | i | 59 | 8% | -4% | -0.78 | -0.091 | 0.3 | -0.12 | i | 18 | 1.8 | 1.3 | 4.9 | 10 | 11 | .
CCC(=O)Nc1ccc(S(=O)(=O)N2CCN(c3ccc(F)cc3)CC2)cc1 | i | 14 | -1% | 5% | -1 | -0.22 | -1 | 0.83 | i | 6 | 3.2 | 2.4 | 2.4 | -18 | -14 | i
Cc1ccc(-n2c(CCC(=O)O)ccc2-c2cccs2)cc1C | i | 10 | 7% | 18% | -0.64 | -0.23 | -0.56 | -0.089 | i | 6 | 2.7 | 1.4 | 4.6 | 2 | -6 | i
CC1CCN(C2CCN(S(=O)(=O)c3ccc(F)cc3)CC2)CC1 | i | 42 | 2% | 15% | 0.58 | -0.2 | 0.42 | 0.69 | i | 10 | 5.5 | 1.8 | 3.2 | 9 | 59 | i
Cc1ccc(NC(=O)CN(Cc2ccccc2)S(C)(=O)=O)cc1C | i | 4 | 1% | -5% | -0.91 | -0.35 | -0.26 | 0.33 | i | 6 | 3.2 | 2.0 | 7.6 | 14 | 94 | i
COc1ccc(CCNC(=O)c2ccccc2NC(=O)c2ccco2)cc1OC | i | 35 | -2% | 7% | 3.2 | -0.17 | 1.8 | -1.8 | i | 2 | 3.3 | 1.4 | 6.4 | 11 | 0 | i
COC(=O)c1cn[nH]c1NC(=S)Nc1ccccc1C | i | 27 | 5% | 15% | -0.37 | -0.19 | 0.27 | 0.027 | i | -5 | 2.7 | 1.5 | 6.6 | 2 | -1 | i
COCCn1c(Cc2ccccc2)nnc1SCc1nc2ccccc2c(=O)[nH]1 | i | 2 | 1% | -24% | -0.35 | -0.16 | -0.26 | -0.12 | i | 4 | 7.4 | 3.7 | 5.3 | 17 | 3 | i
CC1(C)CC(=O)C2=C(C1)N(Cc1ccccc1)C(=O)C2(O)C(F)(F)F (centres undefined) | i | 56 | -2% | -38% | 0.1 | -0.11 | 0.4 | -0.82 | i | 2 | 3.2 | 2.2 | 5.6 | 5 | 8 | i
CC1CCCC(C)N1C(=O)Cn1cc(/C=C2/C(=O)Nc3ccccc32)c2ccccc21 (centres undefined) | i | 20 | 9% | 2% | 0.017 | 0.55 | 0.41 | -0.54 | i | -2 | 2.7 | 1.2 | 6.2 | 21 | 26 | i
Cc1ccc(NC(=O)COc2ccc(S(=O)(=O)N3CCOCC3)cc2)cc1 | i | 21 | 1% | 2% | 0.69 | -0.22 | -0.61 | 0.63 | i | 2 | 3.2 | 1.7 | 3.4 | -2 | 3 | i
O=C(CSc1nc(-c2ccccc2)cs1)N1CCc2ccccc21 | i | 39 | -4% | 21% | 0.18 | -0.24 | -0.14 | 0.5 | i | 2 | 1.6 | 1.2 | 11 | 4 | 8 | i
COc1ccc(C2=NN(C)C(=NCc3ccccc3)SC2)cc1 | i | 20 | -7% | -1% | 0.61 | -0.25 | -0.74 | 0.7 | i | -7 | 2.9 | 1.6 | 4.9 | 4 | 6 | i
Cc1cccc(NC(=S)NCc2ccccn2)c1 | i | 49 | 5% | -3% | 0.44 | -0.12 | 0.0019 | -0.058 | i | 30 | 2.1 | 1.6 | 4.2 | -8 | 0 | i
CCOc1ccc2nc(SCC)[nH]c2c1 | i | 38 | 3% | -5% | -0.59 | -0.11 | -0.91 | 1 | i | 2 | 3.3 | 1.2 | 5.1 | -7 | 7 | i

This is a subset, so the mix of outcomes need not match the whole.
